BJeLR lethal: MLPCN primary cell-based screen for lethality selective to Ras in HRASV12 cells; inhibition, % (test concentration not listed); 300,000 tested, 0.17% active; BJeLR (HRASV12) viability, CellTiter-Glo ATP luminescence, 48 h; reference of the scale not given here;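 active = replicate mean above 50%; inconclusive = above 50% but judged a plate artefact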;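 note: 50 nL library stock added to about 25 µL; numbers are from one replicate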
Mtb hypoxia inh: PubChem AID 1159583; M. tuberculosis hypoxia-regulated fluorescent reporter, fluorescence; fluorescence inhibition, % (no concentration beside the values); 300,000 tested, 0.1% active;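 active = 35 to 45% if threefold the growth effect, above 45% if 1.5-fold the growth effect; inactive = the rest, general growth blockers included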;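 note: wells of about 50 µL received 100 nL stock; 0% = vehicle wells and 100% = reference inhibitor wells; whole bacteria with a GFP reporter of the hypoxia response; strong numbers were not always called active; many hits fall short of the cut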
PrP 5UTR inh: inhibition of PrP 5' UTR reporter expression; 340,000 tested, 0.35% active; inhibition, % (no concentration beside the values); cell-based PrP 5' UTR mRNA reporter, plate reader; AID 488862, 2010;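 active = every replicate at 50% or more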;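 note: 0 = median of the neutral control wells; tested in H4 reporter cells; numbers are from one replicate; inactives centre near -14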
Bead autofluor: compound fluorescence in toxin protease inhibitor counterscreen | compound autofluorescence counterscreen, microsphere flow cytometry; stronger effect = higher value | fluorescence intensity (concentration not given with the values) | 360,000 tested, 3.1% active | AID 624483;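 active = at least 3 SD above the mean of all compounds, about 16000 in these data; inconclusive = too few beads counted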;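 note: 100 nL of 1 mM stock went into each well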
ugtP null kill: growth inhibition of ugtP-null S. aureus, primary screen, RN4220 ugtP deletion, OD600; growth inhibition, % (no concentration beside the values); AID 1259309, 2017; 16 h; some inactives read as strong as hits; 330,000 tested, 0.54% active;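 active = z-score under -3 and OD600 up to 0.15 on both plates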;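 note: plate controls were untreated wells for no effect and antibiotic for full effect; wells of about 80 µL received 100 nL stock; the first replicate is given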
RN4220 kill: growth inhibition of S. aureus RN4220, primary screen, OD600 | 330,000 tested, 0.33% active | 16 h | inhibition, % (test concentration not listed);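 active = z-score of -3 or lower and OD600 up to 0.18 on both plates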;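 note: plate controls were untreated cells for no effect and reference antibiotic for full effect; stock transfer was 100 nL into about 80 µL; one replicate is shown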
Mtb hypoxia inh growth: recorded beside Mtb hypoxia inh, whose call it bears; growth inhibition, %; measured here: M. tuberculosis growth (absorbance);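 0% = vehicle and 100% = reference antibiotic; read after six days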
The depositor's hits bear a star; ? = inconclusive; . = not tested or not shown.

Start of the data: the first 4 compounds, to show the layout:
SMILES	BJeLR lethal	Mtb hypoxia inh	Mtb hypoxia inh growth	PrP 5UTR inh	Bead autofluor	ugtP null kill	RN4220 kill
Cc1ccc([N+](=O)[O-])cc1N=Cc1ccc(Br)s1	4	3	5	-30	20554*	2	0.1
CC1CCN(CCCNC(=O)c2ccc(CS(=O)(=O)Cc3ccccc3F)o2)CC1	1	1	2	-21	4005	0	-15
CC(C)CC1NC(=O)N(CC(=O)Nc2ccc(-c3ccccc3)cc2)C1=O (configuration not stated)	.	9	3	-26	6727	7	-3.7
Cc1cc(Nc2cccc(F)c2)n2ncnc2n1	-14	.	.	-30	5902	1	0.7

Results, from the first entry:
SMILES	BJeLR lethal	Mtb hypoxia inh	Mtb hypoxia inh growth	PrP 5UTR inh	Bead autofluor	ugtP null kill	RN4220 kill
Cc1ccc([N+](=O)[O-])cc1N=Cc1ccc(Br)s1	4	3	5	-30	20554*	2	0.1
CC1CCN(CCCNC(=O)c2ccc(CS(=O)(=O)Cc3ccccc3F)o2)CC1	1	1	2	-21	4005	0	-15
CC(C)CC1NC(=O)N(CC(=O)Nc2ccc(-c3ccccc3)cc2)C1=O (configuration not stated)	.	9	3	-26	6727	7	-3.7
Cc1cc(Nc2cccc(F)c2)n2ncnc2n1	-14	.	.	-30	5902	1	0.7
Cc1ccc(CCNS(=O)(=O)c2cc3c(cc2C)n(C)c(=O)c(=O)n3C)cc1	-3	.	.	-17	4581	7	1.2
C#CCOCCOCCOCCNc1nc(N2CCN(C(=O)CCCCCCCCCCNC(=O)C(CCSC)n3cc(CCO)nn3)CC2)nc(N2CCN(C(=O)CCCCCCCCCCNC(=O)C(CCC(=O)O)n3cc(CCCCCN)nn3)CC2)n1 (configuration not stated)	.	3	13	.	.	-18	7.9
C=CCn1c(CSCc2ccc(Cl)cc2)nnc1SCC(=O)NCc1ccccc1	-12	2	-2	-21	3094	-6	1.8
CC(NC(=O)CCn1ccc2cc(S(=O)(=O)N3CCCC3)ccc21)c1ccccc1 (configuration not stated)	-15	-5	-3	-19	5219	-2	-0.9
Cc1ccc2sc(-c3ccc(NC(=O)c4cc(-n5cnnc5)ccc4Cl)cc3)nc2c1	6	1	14	-181	10500	-7	-9.6
COc1ccc(CC(=O)OC(C)C(=O)NC2CCCCC2C)cc1 (configuration not stated)	.	11	-1	-27	6436	0	4.0
COc1ccc(C(CNC(=O)c2ccco2)N2CCCC2)cc1 (configuration not stated)	.	-10	7	-23	?	-4	-2.8
CCCCCn1c(CN2CCN(C)CC2)nc2c1c(=O)n(C)c(=O)n2C	-3	9	1	-24	5551	0	-4.5
COc1cccc(CN(C)C(=O)c2ccc(Oc3ccccc3)cc2)c1OC	8	-2	10	-21	3048	78	69
O=C(O)c1ccc(N2C(=O)CC(N3CCN(c4ccc(Cl)cc4)CC3)C2=O)cc1 (configuration not stated)	3	18	5	-13	3771	11	2.1
CCCCc1cc(=O)oc2cc(C)cc(OC(C)C(=O)NCc3ccncc3)c12 (configuration not stated)	2	4	0	-8	4631	1	-0.5
COC(=O)[C@H](Cc1ccccc1)NC(=O)Cn1cnc2c(NCc3ccccc3)ncnc21	.	-6	1	-8	3081	4	3.4
Cc1cc(/C=C2/C(=O)NC(=O)N(c3ccccc3)C2=O)c(C)n1-c1ccc(F)cc1	4	3	-1	-8	3406	11	1.4
COc1cc([N+](=O)[O-])ccc1NC(=O)CCCOc1cc(C)ccc1C	0	6	-5	-2	2502	2	5.8
CNC(=O)COc1ccc(-c2nn(C)c(=O)c3ccccc23)cc1	2	18	3	-33	10334	6	3.7
O=C(Cc1cccs1)N1CCCC(c2nc3c(nnn3Cc3ccccc3Cl)c(=O)[nH]2)C1 (configuration not stated)	6	4	13	-5	7589	7	1.9
CCN(CC)CCCn1c(SCC(=O)Nc2cccc(F)c2)nnc1-c1ccoc1C	-2	6	2	0	3855	0	3.1
COc1cc(OC)cc(C(=O)NNC(=O)CCC(=O)c2cccs2)c1	-15	5	3	-3	4453	3	-0.8
COC(=O)c1ccc(NS(=O)(=O)c2ccc(SC)cc2)cc1	4	4	3	-63	5912	-5	1.5
CCC(=O)ON=C(N)c1ccc(Oc2cc(C)c(Cl)c(C)c2)c([N+](=O)[O-])c1	.	4	-1	.	.	3	6.7
COCCOCC(O)CN1CCN(c2ccc(C)cc2)CC1 (configuration not stated)	-2	-2	4	-8	4406	-4	-7.7
COc1ccc(S(=O)(=O)N(C)CC(=O)N2CCCC2)cc1Cl	5	-2	3	-65	1940	3	1.8
CCOc1cccc(C2C(C#N)=C(N)Oc3cc(C)[nH]c(=O)c32)c1OCC (configuration not stated)	-2	6	6	-11	4423	-1	3.1
COc1cccc(NC(=O)Nc2ccc3c(c2)nc(C)n3C)c1	.	10	12	-60	2780	10	0.8
COc1ccc(C)cc1S(=O)(=O)N(C)CC(=O)N1CCC(C)CC1	22	12	5	-20	10146	6	8.1
COc1ccccc1CNC(=O)C(C)Sc1ccc(C)cc1 (configuration not stated)	-5	5	8	-15	4635	4	3.2
Cc1nn(C)c(C(=O)NNC(=S)NCC(C)C)c1Cl	9	5	4	-24	2085	0	7.2
Cc1ncc([N+](=O)[O-])n1CC(=O)Nc1ccc(OC(F)(F)Cl)cc1	3	-2	-1	-3	3931	0	0.4
CSc1ccc(/C=C(/Sc2nnc(-c3ccccc3)o2)C(=O)O)cc1	1	5	-8	-2	4826	-1	5.6
C[C@]12CCC3C(C[C@@H](O)[C@H]4C[C@@H](O)CC[C@]34C)C1CC[C@@H]2O (some centres not stated)	.	10	3	-13	2979	7	4.1
Nc1nonc1C(=O)N/N=C/c1cc2c(cc1Br)OCO2	-3	.	.	-10	5616	.	.
CC12CCC(=O)N1C(C(=O)NCCc1ccc(F)cc1)CS2 (configuration not stated)	1	0	-2	-17	5486	3	3.9
CC(=O)c1cccc(NC(=O)CSc2nc3ccccc3c(=O)n2CCCN2CCOCC2)c1	.	0	6	-1	3715	5	11
CC(=O)Nc1c(Cl)cnn(-c2ccccc2)c1=O	-9	1	-2	.	.	13	4.5
O=C1OC(c2ccccc2)=C/C1=C/N1CCCCC1	-7	6	10	-100	11792	-10	6.1
O=C(CSc1nnc(NC(=O)C2CC2)s1)Nc1ccccc1Cl	-7	-2	5	2	5741	4	3.8
CCCCC1COCCS(=O)(=O)N1Cc1ccc(C)cc1 (configuration not stated)	.	7	5	.	.	-9	5.0
COc1cccc(C(=O)NCC(c2ccco2)N2CCOCC2)c1 (configuration not stated)	4	-2	7	-23	5403	-2	0.9
Cc1cc(C)nc(SC(C)C(=O)Nc2ccc(S(N)(=O)=O)cc2)n1 (configuration not stated)	3	-3	10	-13	21604*	-4	-2.7
Cc1cc(NC(=O)c2cc(-c3ccccc3C)nc3ccccc23)no1	-9	0	5	-7	9338	4	-3.9
CN(C(=O)COC(=O)CCc1c[nH]c2ccccc12)C(c1ccccc1)c1ccccc1	-10	0	7	-10	2051	6	3.5
COc1cc(C2C(C#N)=C(N)N(N(C)C)C3=C2C(=O)CC(C)(C)C3)ccc1O (configuration not stated)	10	-10	5	-12	3805	4	1.2
CCOC(=O)/C(=N\Nc1cc(Cl)ccc1Cl)N1CCN(CC)CC1	-8	.	.	-42	2355	.	.
Cc1cc(N=CC2=C(O)CC(C)(C)CC2=O)no1	-2	-2	7	-23	3100	-10	-12
C[n+]1ccc(/C=N/Nc2nc(Cl)c(C#N)c(Cl)c2Cl)cc1	-3	.	.	11	2992	.	.
Cc1cc(Cl)nc(N)n1	8	8	-2	-35	11772	2	5.7
Cc1cc(=O)oc2cc(OCC(=O)NCc3cccnc3)ccc12	-2	-2	0	-10	23262*	3	1.9
CCOc1cc(/C=C\c2[nH]c(=O)[nH]c(=O)c2[N+](=O)[O-])ccc1OC(C)CC (configuration not stated)	-2	9	3	.	.	3	4.0
Cc1ccccc1NC(=O)NC1(C(=O)N2CCN(C)CC2)CCCCC1	-7	-1	-4	-15	3642	-4	2.0
C/C(=C/C(=O)NCc1ccccc1)C(=O)O	13	-2	3	8	22169*	-1	0.3
CCOc1ccc(C=NNc2cc(=O)n(C)c(=O)n2C)cc1	.	10	-1	.	.	5	3.7
CC(=NNC(=O)c1cccc(Br)c1)c1ccc(Br)cc1	.	8	4	.	.	-2	0.5
FC(F)=C(F)CCSc1ncn[nH]1	4	-7	-15	-20	3397	1	-0.1
Cc1ccc(Nc2nc(N)c3ccccc3n2)cc1Cl	2	-22	2	-47	3867	-31	-5.9
Cc1nc2ccc(Cl)cc2[nH]1	.	7	3	3	2981	11	5.5
COc1cccc(C(=O)NCC(=O)N/N=C/c2cccs2)c1	-11	.	.	6	2672	.	.

3 entries from above, ordered by number of heavy atoms, low to high:
SMILES	BJeLR lethal	Mtb hypoxia inh	Mtb hypoxia inh growth	PrP 5UTR inh	Bead autofluor	ugtP null kill	RN4220 kill
FC(F)=C(F)CCSc1ncn[nH]1	4	-7	-15	-20	3397	1	-0.1
Cc1ccc(Nc2nc(N)c3ccccc3n2)cc1Cl	2	-22	2	-47	3867	-31	-5.9
CCOc1cc(/C=C\c2[nH]c(=O)[nH]c(=O)c2[N+](=O)[O-])ccc1OC(C)CC (configuration not stated)	-2	9	3	.	.	3	4.0

(continued)
SMILES	BJeLR lethal	Mtb hypoxia inh	Mtb hypoxia inh growth	PrP 5UTR inh	Bead autofluor	ugtP null kill	RN4220 kill
O=[N+]([O-])c1cccc(/C=N/NC2=NCCCCC2)c1	1	.	.	-17	2500	.	.
O=C(C=CNNC(=O)c1cccc(Br)c1)c1ccccc1	.	2	3	.	.	-7	1.9
O=C(COC(=O)Cc1ccsc1)Nc1ccc(Cl)cn1	.	-3	8	-6	3767	0	1.4
Cc1c(C(=O)c2ccccc2)c2ccccc2n1C	6	2	8	-12	3717	6	4.1
COc1ccccc1OCC(=O)NCc1n[nH]c(=O)c2ccccc12	11	-6	8	-11	.	0	1.1
O=C(CSc1cccc[n+]1[O-])NC(=O)c1ccc(OC(F)F)cc1	-4	12	-2	15	3287	1	1.1
CCOC(=O)c1ccc(N2C(=O)CC(N3CC(C)OC(C)C3)C2=O)cc1 (configuration not stated)	.	.	.	-14	2248	0	2.6
COc1ccc(/C=N/NC(=O)C2(O)c3ccccc3-c3ccccc32)cc1	-1	.	.	-17	7438	.	.
COc1ccc(N2CC(C)(C)C2=O)cc1	-8	7	-1	-28	2794	-2	2.3
Cc1ccc(S(=O)(=O)N2CCN(C(=O)CN3CCCCC3)C2)cc1	-15	-1	-5	10	3835	12	0.3
Cc1nc2cc(NC(=O)NCCCO)ccc2o1	-7	-4	10	-20	3759	3	10
COC(=O)/C=C1/N/C(=N\c2nc(C)cc(C)n2)N(c2cccc(C)c2)C1=O	3	.	.	-17	2481	.	.
Cc1ccc(-c2nnn(CC(=O)N(C)C3CCCCC3)n2)o1	8	2	2	-11	3095	3	2.9
CC(c1nc2ccccc2c(=O)[nH]1)N(C)CCOc1ccc(Cl)cc1 (configuration not stated)	-3	5	-5	1	3351	16	1.5
Cc1sc2ncnc(N3CCC(C(=O)NNC(=O)c4ccccc4Cl)CC3)c2c1C	-8	3	17	-14	5805	-1	0.2
COc1ccc(OC)c(C(C)NC(=O)c2ccc(Br)cc2)c1 (configuration not stated)	4	8	19	-20	9972	6	5.6
Nc1ccc(Oc2ccc3c(c2)C(=O)NC3=O)cc1	0	7	1	-11	3804	6	2.3
COC(=O)CNC(=O)c1ccc(OC2CCN(C(=O)C3CC3)CC2)cc1	-6	-5	1	-14	4343	5	11
CC(C)(C)C(=O)NC(=S)Nc1ccc(S(=O)(=O)Nc2nccs2)cc1	-9	16	11	-11	3615	26	7.7
Cc1cc(C)cc(OCC(=O)OCC(=O)N(CC(C)C)c2c(N)n(Cc3ccccc3)c(=O)[nH]c2=O)c1	-7	-3	-7	3	?	6	1.7
CCOC(=O)c1c(C)c(C(=O)NCC2CCCO2)c(C)n1C (configuration not stated)	11	7	6	-25	10904	16	5.3
CC(=O)NN=Cc1cccc(OC/C=C/c2ccccc2)c1	.	16	1	.	.	-10	8.1
CCCCN=C(Nc1ccc(Cl)cc1)c1cccnc1	-4	15	6	-30	5541	-1	2.0
CCCCCCSc1ccc(-c2nc3ccc(Cl)cn3c2NCc2ccccc2)cc1	.	7	8	-21	3419	-19	-2.2
Cc1noc(C)c1CSc1nnc(-c2ccccc2)n1N	-6	1	5	-13	3531	-8	-2.1
